High-throughput results from PubChem.
AF4-AF9 inh = blocks AF4 peptide binding to human AF9. 350,000 compounds, 0.47% hits. inhibition, % at 10 µM. P42568. AID 651704. AlphaScreen, biotin-AF4 peptide binding to FLAG-AF9;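 active means every replicate reaching a set inhibition limit, whatever the replicate mean, cut at about 25% in these data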;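 further: 0% = plate neutral control median and 100% = total signal loss; the record names both 10 and 1 µM as test concentration; the first replicate is given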
Target sequence (P42568 whole entry, looked up): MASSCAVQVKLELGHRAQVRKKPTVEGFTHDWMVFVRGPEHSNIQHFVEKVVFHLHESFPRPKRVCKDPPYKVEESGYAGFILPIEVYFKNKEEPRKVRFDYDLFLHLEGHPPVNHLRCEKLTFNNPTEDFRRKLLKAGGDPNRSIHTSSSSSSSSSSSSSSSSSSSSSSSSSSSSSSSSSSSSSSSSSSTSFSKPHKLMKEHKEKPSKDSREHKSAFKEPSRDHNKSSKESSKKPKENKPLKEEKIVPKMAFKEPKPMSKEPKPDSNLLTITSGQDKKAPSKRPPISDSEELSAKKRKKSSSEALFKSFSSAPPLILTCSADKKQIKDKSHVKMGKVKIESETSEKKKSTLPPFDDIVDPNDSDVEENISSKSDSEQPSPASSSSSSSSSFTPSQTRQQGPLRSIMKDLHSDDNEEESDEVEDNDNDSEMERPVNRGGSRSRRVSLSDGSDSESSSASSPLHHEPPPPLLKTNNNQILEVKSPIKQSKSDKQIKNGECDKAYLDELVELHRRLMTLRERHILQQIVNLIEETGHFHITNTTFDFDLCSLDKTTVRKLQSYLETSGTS
rRNA inh HTS = inhibits bacterial ribosomal RNA function over humanized ribosomes; E. coli WT GFP vs humanized-ribosome RFP mutants, fluorescence, 24 h; active compounds read low; DMSO median 0, no signal -100; GFP signal change (wild-type ribosome), % (no concentration beside the values); 350,000 compounds, 1.6% hits;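 active means significant combined selectivity score with lowered wild-type GFP, culture density cut under 30%, mutant RFP and density less affected; inactive means any of these conditions unmet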; further: one replicate is shown; some compounds called inactive have numbers as strong as hits
rRNA inh HTS OD600 = further read-out of rRNA inh HTS, marked with its call; OD600 change, %; measured here: OD600 growth;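 optical density of the mix in the first replicate; 0 = DMSO median and -100 = no signal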
rRNA inh HTS RFP = also measured in rRNA inh HTS; calls as there; RFP signal change, %; measured here: RFP humanized mutant strains;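 first replicate; 0 = DMSO median and -100 = no signal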
* hit, by the source's call; & = joins results of further samples. Only part of the results is shown (hit frequency here may not be typical).

Each structure is followed by: AF4-AF9 inh	rRNA inh HTS	rRNA inh HTS OD600	rRNA inh HTS RFP
CCCNC(=O)C[C@@H]1C[C@@H]2c3cc(NC(=O)Nc4ccc(OC)cc4)ccc3O[C@@H]2[C@@H](CO)O1
    0.8	-4.0	1.1	1.2
CCCC#Cc1ccc2c(c1)O[C@H](CN(C)C(=O)Nc1ccccc1F)[C@H](C)CN([C@@H](C)CO)S2(=O)=O
    0.5	-1.0	-10.2	2.8
CO[C@@H]1CC[C@H]2CCOc3c(C#N)cccc3C(=O)N(C)C[C@H](c3ccccc3)CC(=O)N(C)C[C@H]1O2
    -0.4	6.7	-1.6	-2.2
CC[C@H](C)[C@H](NC(=O)OCc1ccccc1)C(=O)OCC(=O)N1CCN(c2ccc(OC)cc2)CC1
    1.0	5.1	-11.0	5.7
C[C@H]1[C@@H](c2ccccc2)Oc2c(Cl)cccc2S(=O)(=O)N1C
    -2.0	-42.0	-34.7	-11.8
O=C(Cc1cccnc1)N1CC(=O)N2[C@H](CO)[C@H](c3ccc(C#CC4CCCC4)cc3)[C@H]2C1
    -2.2	1.2	1.1	1.0
C[C@@H]1CCCCO[C@H](CN(C)S(=O)(=O)c2ccc(F)cc2)[C@@H](C)CN([C@@H](C)CO)C(=O)c2cc(NC(=O)Nc3ccc(C(F)(F)F)cc3)ccc2O1
    -4.9	3.5	0.4	-3.8
C[C@@H]1CN([C@@H](C)CO)C(=O)c2cccc(NC(=O)C3CCCCC3)c2O[C@H]1CN(C)Cc1ccncc1
    -0.2	-4.2	1.6	4.0
Cc1ccc(NC(=O)Nc2ccc3c(c2)C(=O)N(C)[C@H]2CC[C@@H](CC(=O)O)O[C@H]2CO3)cc1
    -6.2	-0.8	0.4	0.1
CCCCSc1nc(N)nc2c1ncn2C1OC(CO)C(O)C1O (configuration not stated)
    2.0	1.3	-10.1	-5.6

Copied from the list:
In rRNA inh HTS, O=C(Cc1cccnc1)N1CC(=O)N2[C@H](CO)[C@H](c3ccc(C#CC4CCCC4)cc3)[C@H]2C1 is listed with 1.2
In rRNA inh HTS, CC[C@H](C)[C@H](NC(=O)OCc1ccccc1)C(=O)OCC(=O)N1CCN(c2ccc(OC)cc2)CC1 is listed with 5.1
In AF4-AF9 inh, Cc1ccc(NC(=O)Nc2ccc3c(c2)C(=O)N(C)[C@H]2CC[C@@H](CC(=O)O)O[C@H]2CO3)cc1 is listed with -6.2

Following part.
Each structure is followed by: AF4-AF9 inh	rRNA inh HTS	rRNA inh HTS OD600	rRNA inh HTS RFP
CC(C)NC(=O)C1(C)CN(S(C)(=O)=O)CC(=O)N1C1CC1 (configuration not stated)
    0.0	13.5	7.3	0.7
C[C@H]1CN([C@@H](C)CO)C(=O)CCCn2cc(nn2)CO[C@@H]1CN(C)Cc1cccnc1
    -0.1	0.2	-2.5	-0.8
O=C(Nc1ccc(F)cc1)C(CCc1ccccc1)N1CCN(c2cccc(C(F)(F)F)n2)CC1 (configuration not stated)
    -4.0	16.3	0.9	19.4
O=C(CN1CCOCC1)N[C@H]1CC[C@@H](CCNC(=O)C2CCCCC2)O[C@@H]1CO
    -5.3	3.9	3.1	8.3
CCc1nc2c(OCCn3cccc3)cccn2c1N(C=O)Cc1ccc(OC)cc1
    -0.4	5.0	19.6	2.0
C[C@@H]1CN([C@@H](C)CO)C(=O)c2cc(NC(=O)CCN3CCOCC3)ccc2O[C@H]1CN(C)Cc1ccc2c(c1)OCO2
    1.7	1.3	16.6	-1.7
C[C@@H]1CN([C@@H](C)CO)C(=O)c2cc(Br)cnc2O[C@H]1CN(C)CC1CCCC1
    -4.2	9.0	9.9	1.3
C[C@H]1CN([C@@H](C)CO)C(=O)c2cc(NC(=O)C3CC3)ccc2O[C@@H]1CN(C)C
    -1.2	8.8	18.9	3.3
CCCC(=O)Nc1ccc2c(c1)OC[C@@H](C)N(Cc1ccc(F)cc1)C[C@H](C)[C@@H](OC)CN(C)C2=O
    2.5	-2.4	-20.5	3.9
C[C@H](CO)N1C[C@H](C)[C@H](CN(C)C(=O)Nc2ccc3c(c2)OCO3)Oc2ccc(NC(=O)Cn3cnnn3)cc2C1=O
    -9.1	0.5	-5.1	2.8

Continuation.
Each structure is followed by: AF4-AF9 inh	rRNA inh HTS	rRNA inh HTS OD600	rRNA inh HTS RFP
O=C(C[C@H]1C[C@H]2c3cc(NC(=O)c4ccc5c(c4)OCO5)ccc3O[C@H]2[C@@H](CO)O1)NCc1cccc(F)c1
    -8.8	-2.0	10.4	0.1
CO[C@@H]1CN(C)C(=O)c2ccc(NC(=O)C3CCCCC3)cc2OC[C@@H](C)N(Cc2cccnc2)C[C@H]1C
    0.9	-2.2	-3.8	2.3
O=C(Nc1ccc(F)cc1)N1CC(=O)N2[C@H](CO)[C@H](c3ccc(C4=CCCC4)cc3)[C@H]2C1
    -1.7	-2.8	-2.2	-0.7
Cc1ccc(S(=O)(=O)Nc2ccc3c(c2)C(=O)N([C@H](C)CO)C[C@H](C)[C@@H](CN(C)C(=O)CCCN(C)C)OCCCC[C@H](C)O3)cc1
    0.0	1.7	8.9	-2.2
C[C@@H]1CN([C@@H](C)CO)S(=O)(=O)c2ccc(C#CCN(C)C)cc2O[C@H]1CN(C)C(=O)c1ccccc1F
    1.6	-3.0	-3.7	-5.2
C[C@@H]1CN([C@@H](C)CO)C(=O)c2cc(NC(=O)Cn3cnnn3)ccc2O[C@H]1CN(C)CC1CCCCC1
    1.9	4.2	7.5	-0.8
CCC(=O)N(C)C[C@H]1Oc2ncc(C#CC3(O)CCCC3)cc2C(=O)N([C@H](C)CO)C[C@@H]1C
    -2.5	7.1	11.1	-2.5
C[C@@H]1CN([C@@H](C)CO)C(=O)c2cc(NC(=O)Cn3cnnn3)ccc2O[C@@H]1CN(C)Cc1ccc(Cl)c(Cl)c1
    6.6	-6.2	-12.4	11.5
COc1ccc2c3c(n(C)c2c1)[C@H](CO)N(CC1CCCC1)CC31CCN(Cc2nccs2)CC1
    1.6	3.3	-5.0	5.2
N#C[C@@H]1[C@@H](c2ccccc2-c2ccc(F)cc2)[C@@H](CO)N1C(=O)Cc1ccccc1
    -1.5	-17.9	-63.8	4.7

More records:
Each structure is followed by: AF4-AF9 inh	rRNA inh HTS	rRNA inh HTS OD600	rRNA inh HTS RFP
CCCN(C)C[C@@H]1Oc2cc(C#CC3CCCC3)ccc2S(=O)(=O)N([C@@H](C)CO)C[C@H]1C
    3.4	-0.4	-3.1	-2.5
O=C(NCc1ccccc1)[C@@H]1CCCN1C(=O)[C@H]1CCCN1C(=O)c1ccccc1F
    -2.1	13.4	9.6	6.2
O=C(C[C@H]1C[C@H](C(=O)N2CCCCC2)[C@@]2(CCc3ccccc3)c3[nH]c4ccc(Cl)cc4c3CCN2C1=O)NCCC1=CCCCC1
    11.4	15.7	12.9	0.5
CN(C)CC(=O)N[C@@H]1CC[C@@H](CC(=O)NCCN2CCCCC2)O[C@@H]1CO
    -10.8&-0.9	5.2&14.7	3.0&8.7	-1.2&2.8
CC(C)(C)S(=O)N1Cc2cc(C(=O)NCCCN3CCOCC3)nc(-c3cccc(C#CCC4CCCC4)c3)c2[C@@H]1CCO (some centres not stated)
    10.7	-16.0	-5.8	25.4
CO[C@H]1CN(C)C(=O)c2cc(NS(C)(=O)=O)ccc2OC[C@H](C)N(C)C[C@@H]1C
    -7.9	2.6	3.0	-1.9
COc1ccc2c(CN3CCN(c4ccccc4F)CC3)cc(=O)oc2c1
    -1.3	-5.0	2.2	-3.9
CCC(=O)N1[C@H](CO)[C@@H](c2ccccc2)[C@@H]1CN(C)C(=O)c1cccc(F)c1
    -1.8	-0.8	1.0	-2.2
CO[C@@H]1CN(C)C(=O)c2ccc(NC(=O)C3CC3)cc2OC[C@H](C)N(C(=O)C2CCOCC2)C[C@H]1C
    0.2	0.8	10.1	1.2
COC(=O)c1cccc(OCCCN2CCC(C(O)(c3ccccc3)c3ccccc3)CC2)c1
    9.8	-44.5	-79.2	-13.2

The list continues.
Each structure is followed by: AF4-AF9 inh	rRNA inh HTS	rRNA inh HTS OD600	rRNA inh HTS RFP
COCC(=O)N1[C@H](CO)[C@@H](c2ccc(-c3cccnc3)cc2)[C@@H]1C#N
    -1.4	2.5	21.4	-1.5
C/C=C/c1ccc2c(c1)O[C@@H](CN(C)C(=O)Nc1ccc(F)cc1)[C@@H](C)CN([C@@H](C)CO)S2(=O)=O
    4.5	-9.1	-5.2	1.2
CCCNC(=O)N1CC2(CN(C(=O)c3ccncc3)C2)c2c([nH]c3cc(OC)ccc23)[C@H]1CO
    2.0	-3.6	18.4	-1.0
CCN(CC(=O)Nc1cc(Cl)ccc1C)CC(=O)NC1CC1
    -2.1	12.6	10.0	2.6
Cc1ccccc1-c1ccc(CN2C(C(C)C)C(=O)N(Cc3cn(CCC4OCCO4)nn3)CCS2(=O)=O)cc1 (configuration not stated)
    3.0	-7.5	-7.0	1.0
O=C(NCC[C@@H]1CC[C@H](NC(=O)C2CC2)[C@@H](CO)O1)c1cnccn1
    -0.4	-1.9	-4.6	-2.0
COc1ncc(-c2ccc(N3C(c4ccsc4)=Cc4ccc(F)cc4C3CC(C)=O)cc2)cn1 (configuration not stated)
    0.4	-4.0	-1.4	4.7
O=C(Nc1ccccc1F)N1[C@H](CO)[C@H]2c3ccccc3NC[C@H]21
    -13.9	2.5	7.6	-3.8
C[C@H]1CN([C@@H](C)CO)C(=O)Cc2cc(NC(=O)CCC(F)(F)F)ccc2O[C@H]1CN(C)CC1CCCCC1
    -12.8	-1.0	-8.1	-0.1
C[C@H]1CN([C@@H](C)CO)S(=O)(=O)c2ccc(C3=CCCC3)cc2O[C@@H]1CN(C)Cc1ccccc1F
    1.5	-0.2	3.9	1.4

(cont.)
Each structure is followed by: AF4-AF9 inh	rRNA inh HTS	rRNA inh HTS OD600	rRNA inh HTS RFP
C[C@H](CO)N1C[C@H](C)[C@H](CN(C)C)Oc2ccc(NC(=O)CCCCCC(=O)Nc3ccccc3N)cc2C1=O
    0.9	2.7	13.4	-2.0
CCCNC(=O)N1CC2(CCN(Cc3cccc(OC)c3)CC2)c2c(n(C)c3cc(OC)ccc23)[C@@H]1CO
    22.3	1.5	-4.2	2.8
O=C(C[C@H]1C[C@@H]2c3cc(NC(=O)Nc4ccccc4F)ccc3O[C@@H]2[C@@H](CO)O1)NCc1cc(F)ccc1F
    1.4	-7.0	-17.4	3.3
CNC[C@@H]1Oc2ccc(NC(=O)Nc3ccc(C(F)(F)F)cc3)cc2C(=O)N([C@@H](C)CO)C[C@@H]1C
    1.9	4.2	3.1	0.9
CCCOc1ccc(F)cc1-c1cc(C(=O)NC2CCCCC2)[nH]n1
    -5.8	-10.1	-39.9	-7.5
CN(C)C(=O)c1ccc(-c2ccc([C@@H]3[C@H](CO)N4C(=O)CN(C(=O)C5CCCCC5)C[C@@H]34)cc2)cc1
    -13.5	0.5	2.5	-1.9
O=C(C1CCCCC1)N1CC2(C1)[C@@H](c1ccccc1)[C@H](CO)N2C(=O)c1cccnc1
    -1.4	-0.7	6.5	0.2
O=C(C[C@H]1CC[C@H]2[C@@H](COC[C@H](O)CN2Cc2cc(F)cc(F)c2)O1)NC1CCCC1
    -1.1	-7.2	-16.4	1.1
COc1cccc(C(=O)Nc2ccc3c(c2)C(=O)N(C)[C@H]2CC[C@@H](CC(=O)NCc4ccccc4F)O[C@H]2CO3)c1
    0.5	-2.9	-5.1	2.0
O=C(NCC[C@@H]1CC[C@H](NS(=O)(=O)c2ccc(Cl)cc2)[C@@H](CO)O1)c1ccccc1F
    -1.1	-1.2	5.3	0.5

Later entries:
Each structure is followed by: AF4-AF9 inh	rRNA inh HTS	rRNA inh HTS OD600	rRNA inh HTS RFP
C[C@@H]1CN([C@H](C)CO)S(=O)(=O)c2ccc(C3=CCCC3)cc2O[C@H]1CN(C)CC1CCOCC1
    6.2	-3.9	-16.2	3.3
O=C(Nc1ccc(F)cc1)N1[C@@H](CO)[C@@H]2c3ccccc3NC[C@@H]21
    -0.4	-1.8	10.2	-2.1
CCCNC(=O)OC1CC2CC1[C@H]1CCCCN1C2=O (some centres not stated)
    -1.5	10.4	11.1	-3.4
COc1ccc(CN(C)C[C@H]2Oc3ccc(NC(=O)Nc4cccc5ccccc45)cc3C(=O)N([C@@H](C)CO)C[C@H]2C)cc1
    5.7	-7.2	-44.2	11.4
COc1ccc(NC(=O)C2(C)Cc3c(-c4ccccc4)ccnc3O2)cc1OC (configuration not stated)
    2.3	0.7	-3.7	3.0
O=C(N[C@@H]1CC[C@@H](CCNS(=O)(=O)c2ccccc2)O[C@H]1CO)c1cccnc1
    -0.7	-2.4	-2.6	-3.3

Rewritten field by field: entries from further up
O=C(N[C@@H]1CC[C@@H](CCNS(=O)(=O)c2ccccc2)O[C@H]1CO)c1cccnc1
- AF4-AF9 inh: -0.7
- rRNA inh HTS: -2.4
- rRNA inh HTS OD600: -2.6
- rRNA inh HTS RFP: -3.3

COc1ccc(NC(=O)C2(C)Cc3c(-c4ccccc4)ccnc3O2)cc1OC (configuration not stated)
- AF4-AF9 inh: 2.3
- rRNA inh HTS: 0.7
- rRNA inh HTS OD600: -3.7
- rRNA inh HTS RFP: 3.0

C[C@@H]1CN([C@H](C)CO)S(=O)(=O)c2ccc(C3=CCCC3)cc2O[C@H]1CN(C)CC1CCOCC1
- AF4-AF9 inh: 6.2
- rRNA inh HTS: -3.9
- rRNA inh HTS OD600: -16.2
- rRNA inh HTS RFP: 3.3

COc1ccc(CN(C)C[C@H]2Oc3ccc(NC(=O)Nc4cccc5ccccc45)cc3C(=O)N([C@@H](C)CO)C[C@H]2C)cc1
- AF4-AF9 inh: 5.7
- rRNA inh HTS: -7.2
- rRNA inh HTS OD600: -44.2
- rRNA inh HTS RFP: 11.4
